Screening data (PubChem BioAssay)
miR-21 FLuc: raises the signal of a miR-21 reporter; HeLa miR-21 FLuc reporter, luciferase, 48 h; Potency, µM (highest dose often 38.3 µM), for inactives: at the top dose reporter change, positive = more light; 340,000 tested, under 10 active; AID 2288; active = well fitted rising curve with a large enough effect; inconclusive = small, poorly fitted or top-dose-only effect; inactive = no such curve, though single readings can be large or run the other way;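 further: % of control where 0% means no effect; miR-21 action dims this reporter so a rising signal means less miR-21 action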
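HeLa miR-21-FLuc reporter line, endogenous miR-21; 2000 cells/well in DMEM/10% FBS; compound titration up to ~40uM final, 48 h, 37 degree Celsius; luciferase detection reagent, 15 min lysis, CCD luminescence.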
GLA inh pH 4.5: blocks human alpha-galactosidase A at pH 4.5; activity change, negative = inhibition, % at 105 µM; purified enzyme, 4-MU-alpha-Gal fluorescence, pH 4.5; 230,000 tested, under 10 active; AID 1467; inconclusive = small, poorly fitted or top-dose-only inhibition, or a rising curve; inactive = flat fitted curve, though single readings scatter; no compound was filed as active;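 further: 0% = full activity with enzyme and -100% = basal without enzyme; dose as in the result columns while the protocol names 77 µM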
Target sequence (P06280 whole entry, looked up): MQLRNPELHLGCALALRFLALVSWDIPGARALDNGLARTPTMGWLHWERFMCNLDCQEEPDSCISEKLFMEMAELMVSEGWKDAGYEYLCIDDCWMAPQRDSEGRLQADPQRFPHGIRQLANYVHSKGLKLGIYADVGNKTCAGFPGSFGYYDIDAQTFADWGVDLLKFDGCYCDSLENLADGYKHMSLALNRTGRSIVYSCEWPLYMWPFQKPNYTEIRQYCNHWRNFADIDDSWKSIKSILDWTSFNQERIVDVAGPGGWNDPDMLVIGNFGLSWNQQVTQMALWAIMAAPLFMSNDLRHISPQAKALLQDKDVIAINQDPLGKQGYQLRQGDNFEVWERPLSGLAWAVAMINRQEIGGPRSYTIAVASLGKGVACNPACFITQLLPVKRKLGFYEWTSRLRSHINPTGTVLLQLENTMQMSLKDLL
Rango release inh: prevents RanGTP from dissociating the Rango-importin beta complex | O95149+P62826 | 340,000 tested, 0.071% active | Biochemical FRET Rango-importin beta, RanGTP-induced dissociation | Potency, µM (highest dose often 46.1 µM), for the others: top-dose activity change, negative = inhibition | AID 540253; active means falling FRET ratio curve, often poorly fitted, with flat reads before Ran was added; inconclusive means other falling curves, or compound fluorescence or quenching; inactive means flat or rising ratio curve;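 further: potency means the concentration at half of the fitted maximal effect; % of control where 0% means no effect; nearly all actives have a fitted effect of over 45% in size; -100% = wells without RanGTP and RCC1; the record marks most hits as doubtful in a second field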
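Compounds sat 5 min at room temperature with 0.1 uM Rango biosensor plus 0.25 uM importin beta, then FRET pre-read. RanGTP-RCC1 (0.6 uM Ran, 2mM GTP, 0.2 uM RCC1) added for 45 min, and the CFP/YFP post-read measured blocked complex dissociation.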
Rango-impB inh: Rango-importin beta binding inhibition. Q14974. Rango CFP/YFP FRET sensor + importin beta, 45 min. Potency, µM (highest dose often 92.2 µM), for inactives: top-dose inhibition of complex formation. 340,000 tested, 0.031% active. AID 540263; active = rising FRET ratio curve, often small or poorly fitted; inconclusive = mostly compound fluorescence or quenching in the first reads; inactive = flat curves in all reads;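 further: potency means the concentration at half of the fitted maximal effect; 0% = DMSO wells and 100% = buffer wells lacking importin beta; nearly all actives have a fitted effect of over 15% in size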
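FRET biosensor (snurportin 1 IBB flanked by EYFP and cerulean), 50 nM, with compound 5 min, then 0.125 microM importin beta in PBS, 1 mM DTT, 0.02% Tween-20, 0.1% BSA. CFP/YFP ratio read after 45 min at room temperature; pre-read flags interference.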
* marks the source's active call; other numbers are inactive results; ? = inconclusive; · = no result given; & = joins results of further samples; [ ] = dose if it differs, or a comment.

The line under a structure holds: miR-21 FLuc	GLA inh pH 4.5	Rango release inh	Rango-impB inh
1: O=C(Nc1ccccn1)c1ccc(Cl)c(S(=O)(=O)N2CCCC2)c1
    ·	·	34%	-1.0%
2: CCOC(=O)C1=C(CN2CCCCCC2)NC(=O)NC1c1cccc([N+](=O)[O-])c1 (centres undefined)
    -14%	-11	26%	-0.7%
3: COc1ccc(-c2oc3ccccc3c(=O)c2OCC(=O)O)cc1
    -13%	2	-1%	1.0%
4: Cc1ccc(S(=O)(=O)N(C)C)cc1NC(=O)C(C)N(C)CCOc1ccc(Cl)cc1 (centres undefined)
    17%	·	5%	-0.1%
5: Cc1ccc(-n2c(C)c([N+](=O)[O-])c3ccc(O)c(CN(C)C)c32)cc1
    14%	1	-7%	-0.4%
6: CCOc1ccc(C(=O)Nc2nnc(S(=O)(=O)N3CCCCC3)s2)cc1
    -11%	·	0%	-1.0%
7: O=C(NCc1ccccc1)c1ccc2c(=O)n3c(nc2c1)CCCCC3
    -20%	·	-7%	-1.4%
8: CCC(C)[C@H](NC(=O)Nc1ccc(C(C)=O)cc1)C(=O)OC (some centres undefined)
    -8%	9	0%	?
9: O=C(CCCCCn1c(=S)[nH]c2cc3c(cc2c1=O)OCO3)N1CCN(Cc2ccccc2)CC1
    -9%	-10	-3%	1.3%
10: O=C(Nc1cccc([N+](=O)[O-])c1)Nc1cccc([N+](=O)[O-])c1
    -4%	-4	-6%	-2.2%
11: Nc1nc2c3ccccc3nc(Cc3ccccc3)n2n1
    -15%	-2	7%	-5.6%
12: CCN=C(Nc1ccc2c(c1)OCO2)SC1CC(=O)N(c2ccc(OC)cc2)C1=O (centres undefined)
    2%	-5	0%	0.4%
13: Cc1cc(C(=O)Nc2ccc(N3CCOCC3)cc2)c2ccccc2n1
    -7%	0	0%	3.4%
14: O=C(CSc1n[nH]c(=O)[nH]c1=O)c1ccccc1[N+](=O)[O-]
    -24%	-3	-25%	-1.9%
15: COc1ccccc1C1=NN(C2=NN=C(N)Cc3ncnn32)C(O)(C(F)(F)F)C1 (centres undefined)
    -2%	-12	10%	-4.6%

Arranged by value in Rango release inh (smallest number first): three from the list above.
| cpd | SMILES | miR-21 FLuc | GLA inh pH 4.5 | Rango release inh | Rango-impB inh |
| --- | --- | --- | --- | --- | --- |
| 10 | O=C(Nc1cccc([N+](=O)[O-])c1)Nc1cccc([N+](=O)[O-])c1 | -4% | -4 | -6% | -2.2% |
| 9 | O=C(CCCCCn1c(=S)[nH]c2cc3c(cc2c1=O)OCO3)N1CCN(Cc2ccccc2)CC1 | -9% | -10 | -3% | 1.3% |
| 6 | CCOc1ccc(C(=O)Nc2nnc(S(=O)(=O)N3CCCCC3)s2)cc1 | -11% | · | 0% | -1.0% |

Structural class: the compounds so far with four or more nitrogen atoms.
The line under a structure holds: miR-21 FLuc	GLA inh pH 4.5	Rango release inh	Rango-impB inh
2: CCOC(=O)C1=C(CN2CCCCCC2)NC(=O)NC1c1cccc([N+](=O)[O-])c1 (centres undefined)
    -14%	-11	26%	-0.7%
6: CCOc1ccc(C(=O)Nc2nnc(S(=O)(=O)N3CCCCC3)s2)cc1
    -11%	·	0%	-1.0%
9: O=C(CCCCCn1c(=S)[nH]c2cc3c(cc2c1=O)OCO3)N1CCN(Cc2ccccc2)CC1
    -9%	-10	-3%	1.3%
10: O=C(Nc1cccc([N+](=O)[O-])c1)Nc1cccc([N+](=O)[O-])c1
    -4%	-4	-6%	-2.2%
11: Nc1nc2c3ccccc3nc(Cc3ccccc3)n2n1
    -15%	-2	7%	-5.6%
14: O=C(CSc1n[nH]c(=O)[nH]c1=O)c1ccccc1[N+](=O)[O-]
    -24%	-3	-25%	-1.9%
15: COc1ccccc1C1=NN(C2=NN=C(N)Cc3ncnn32)C(O)(C(F)(F)F)C1 (centres undefined)
    -2%	-12	10%	-4.6%

The results go on.
The line under a structure holds: miR-21 FLuc	GLA inh pH 4.5	Rango release inh	Rango-impB inh
16: CCOC(=O)c1c(CS(=O)(=O)c2ccccc2)n(C)c2cc(Br)c(O)c(CN(C)C)c12
    0%	1	1%	?
17: COc1ccc(/C=C/C(=O)OCC(=O)NC2CCCC2)cc1
    ·	·	-19%	2.0%
18: O=c1cc(N2CCCCC2)c(-c2ccccc2)nn1Cc1ccccc1Cl
    16%	-6	14%	2.9%
19: O=C(O)c1nc2nc(Cl)c(Cl)nc2[nH]1
    2%	6	-8%	-0.8%
20: COc1ccc(Cn2nnnc2CN(Cc2cc3ccc(C)cc3[nH]c2=O)C2CCCC2)cc1
    -7%	9	-9%	0.7%
21: CC1(C)CC(=O)C2=C(C1)NC(=S)C(C#N)C21CCCCC1 (centres undefined)
    -3%	-6	-27%	-5.0%
22: O=C(NC1CCCCC1)C(c1cccs1)N(Cc1cccs1)C(=O)c1ccco1 (centres undefined)
    8%	0	-1%	-1.8%
23: O=C(NCCOc1ccccc1F)C1CC(=O)N(Cc2ccccc2)C1 (centres undefined)
    ·	·	0%	-0.7%
24: O=C(Nc1ccc(O)cc1C(=O)O)c1ccc(NC(=O)c2ccco2)cc1
    ·	·	-14%	-0.9%
25: CC1CN(C(=O)c2nn(C)cc2[N+](=O)[O-])CC(C)O1 (centres undefined)
    -3%	-5	13%	0.1%
26: Cc1cc(C)c(C)c(OCC(=O)NCCN(C)C)c1
    -3%	7	-19%	0.0%
27: O=C(CCS(=O)(=O)c1cccc2nonc12)Nc1ccc(Br)cc1
    -4%&-10%	·	-7%	0.1%
28: COc1ccc(NS(=O)(=O)c2cc(NC(=O)c3cncc(Br)c3)ccc2OC)cc1
    ·	·	-14%	4.9%
29: CCC[N+]1(CC#CC(O)(c2ccccc2)C2CCCCC2)CCCCC1 (centres undefined)
    2%	-14	25%	-3.5%
30: C=CCn1c(SCC(=O)NC2CCCCC2)nnc1-c1cccnc1
    -5%	·	-22%	2.8%

The line under a structure holds: miR-21 FLuc	GLA inh pH 4.5	Rango release inh	Rango-impB inh
31: Cc1cccc(-c2noc(CCC(=O)NCc3ccccc3)n2)c1
    -9%	-12	-2%	1.8%
32: CCn1cc(C(=O)OCC(=O)c2cc(C)n(-c3ccccc3)c2C)c(=O)c2ccc(C)nc21
    -1%	-2	-1%	-1.6%
33: Cc1c(C(=O)Nc2c(C)n(C)n(-c3ccccc3)c2=O)oc2ccc(Cl)cc12
    -2%	·	-8%	1.1%
34: COc1ccc(C(=O)/C=C/C(=O)N(CC(=O)NC2CCCCC2)Cc2ccccc2OC)c(O)c1
    -1%	4	-9%	0.4%
35: Cc1occc1-c1nc(-c2ccncc2)no1
    -46%	2	21%	-2.9%
36: CCCN(CCC)c1nc2c(C)cccn2c(=O)c1/C=C1/SC(=S)N(Cc2ccco2)C1=O
    -5%	·	?	?
37: Cc1ccc(CN2CCN(Cc3cnc(C)s3)CC2CCO)cc1 (centres undefined)
    -1%	6	3%	5.9%
38: O=C(CN1C(=O)C2(OCCO2)c2ccccc21)c1ccc(F)cc1
    -9%	5	2%	3.5%
39: O=C(NC1CCCC1)C(c1c(F)cccc1Cl)N(C(=O)c1csnn1)C1CC1 (centres undefined)
    -1%	·	-1%	-0.4%
40: CC(=O)Nc1nnc(S(=O)(=O)N2CCN(c3ccc(Cl)cc3[N+](=O)[O-])CC2)s1
    1%	·	3%	0.6%
41: N/C(Cc1cccc2ccccc12)=N\OC(=O)c1cccs1
    0%	0	-11%	-0.4%
42: O=C(NCCS(=O)(=O)N1CCN(c2cccc(Cl)c2)CC1)c1cc(=O)c2ccccc2o1
    1%&2%	·	-4%	-1.9%
43: Cc1nnc(NC(=O)CCC(=O)N2CCN(CCOc3cccc4ccccc34)CC2)s1
    1%	-2	2%	-0.6%
44: Cc1cc(=O)[nH]c(SCC(=O)Nc2c(C)n(C)n(-c3ccccc3)c2=O)c1C#N
    ·	·	13%	6.5%
45: CN1C(=S)SC(N(O)C=C2C=CC(=O)C=C2)C1(C)C (centres undefined)
    -1%	-12	26%	-3.2%

The line under a structure holds: miR-21 FLuc	GLA inh pH 4.5	Rango release inh	Rango-impB inh
46: Cc1nn(CC(=O)NCC2CCCO2)c(=O)c2ccccc12 (centres undefined)
    0%	5	0%	-1.6%
47: COc1ccccc1CNc1cc(-c2ccccc2)ccc1OC
    -16%	-2	16%	1.5%
48: COC(=O)c1c(-c2ccccc2)nn(-c2ccccc2)c1C(=O)OC
    1%	·	3%	-5.0%
49: Cc1ccc(-c2noc(C3CCN(S(C)(=O)=O)CC3)n2)o1
    -40%	4	15%	-0.6%
50: O=C1NC(=Nc2ccccc2)SC1Cc1cccc(Cl)c1Cl (centres undefined)
    -19%	3	2%	0.2%
51: CC(=O)c1cccc(Oc2ncccn2)c1
    3%	·	27%	-6.4%
52: COC(=O)c1ccsc1NC(=O)CCS(=O)(=O)c1ccc(Cl)cc1
    ·	·	-6%	?
53: CCCOc1ccc(C2c3c(oc4ccccc4c3=O)C(=O)N2CCN(CC)CC)cc1OC (centres undefined)
    -14%	-5	-4%	-0.5%
54: Cc1c(NS(=O)(=O)c2cccc(C(=O)NCc3ccc(Cl)cc3)c2)c(=O)n(-c2ccccc2)n1C
    1%	-2	9%	-2.9%
55: O=C(C1CCN(S(=O)(=O)Cc2ccccc2)CC1)N1CCN(c2ncccn2)CC1
    -5%	2	-2%	-2.5%
56: COc1ccc(N2C(=O)CN(Cc3cc(OC)c(OC)c(OC)c3)C2=S)cc1
    15%	2[21.1 µM]	-10%	-3.2%
57: Cc1cc(C(=O)N/N=C/C=C/c2ccc(Br)cc2)n[nH]1
    -1%	·	-1%	-2.3%
58: COc1cccc(C2=Nc3cccc4cccc(c34)N2)c1
    -2%	-6	-1%	-2.8%
59: O=C(Nc1ccccc1)N(CCN1CCOCC1)Cc1cccc(Cl)c1
    -12%	0	0%	-5.6%
60: CCCCc1cc(=O)oc2cc(OCC(=O)NCc3ccccn3)c(Cl)cc12
    -4%	·	-5%	-1.4%

The line under a structure holds: miR-21 FLuc	GLA inh pH 4.5	Rango release inh	Rango-impB inh
61: CCOC(=O)c1ccc(NC(=O)c2c(NC(=O)CCC(=O)O)sc3c2CCCCC3)cc1
    -19%	6	-6%	-1.8%
62: Cc1ccc(C(=O)Nc2cc(S(=O)(=O)N3CCOCC3)ccc2N2CCCC2)cc1
    ·	·	-5%	-0.6%
63: Cc1noc(C)c1CSCC(=O)N(CCC(C)C)c1c(N)n(Cc2ccccc2)c(=O)[nH]c1=O
    -2%	·	-7%	-3.6%
64: COc1ccccc1C1CC(c2cccs2)=NN1C(=O)CCC(=O)O (centres undefined)
    -5%	·	-16%	-0.4%
65: CN(C)/C=N/c1cc(=O)n(C)c(=O)n1CC1CC1
    -3%	4&8	-14%	0.4%
66: O=C1CN(C(=O)c2c(F)cccc2F)C(c2ccccc2)c2cc(Br)ccc2N1 (centres undefined)
    16%	·	1%	-3.0%
67: CC(=O)NC1=NN(C(C)=O)C2(S1)C(=O)N(C(C)C)c1ccc(C)cc12 (centres undefined)
    1%	3	-2%	-0.1%
68: Cc1ccc(S(=O)(=O)N2CCC(C(=O)OCC(=O)NCc3ccco3)CC2)cc1C
    ·	·	-3%	?
69: COc1ccc(NC(C)=O)cc1NC(=O)c1cccc(C(F)(F)F)c1
    -6%	6	-2%	-1.3%
70: COc1ccc(C(=O)Nc2ncc(C)s2)cc1S(=O)(=O)N1CCCC1
    -1%	0	-3%	-4.6%
71: O=C(c1cncc(Br)c1)N1CCN(S(=O)(=O)c2ccc(Cl)cc2)CC1
    1%	·	14%	-2.0%
72: CN(CC(=O)N1CCCC1)S(=O)(=O)c1cccc(Cl)c1
    -3%	·	5%	2.5%

A portion of the library; the hit share may differ from the screen's.
